Screening data as filed in PubChem.
VDR inhibitor: Inhibitors of the vitamin D receptor (VDR): qHTS; Vitamin D3 receptor (Homo sapiens), P11473; VDR-SRC2-3 peptide fluorescence polarization, 2 h; Potency, µM, for the others: max response, negative = inhibition, most hits filed as inhibitors; actives 0.93% (n = 400,000); active = well fitted inhibition curve with a large enough effect; inconclusive = small, poorly fitted or top-dose-only effect, or another doubt; inactive = no such curve, though single readings can be large or run the other way; also: series mostly up to about 120 µM
Target sequence (P11473 whole entry, looked up): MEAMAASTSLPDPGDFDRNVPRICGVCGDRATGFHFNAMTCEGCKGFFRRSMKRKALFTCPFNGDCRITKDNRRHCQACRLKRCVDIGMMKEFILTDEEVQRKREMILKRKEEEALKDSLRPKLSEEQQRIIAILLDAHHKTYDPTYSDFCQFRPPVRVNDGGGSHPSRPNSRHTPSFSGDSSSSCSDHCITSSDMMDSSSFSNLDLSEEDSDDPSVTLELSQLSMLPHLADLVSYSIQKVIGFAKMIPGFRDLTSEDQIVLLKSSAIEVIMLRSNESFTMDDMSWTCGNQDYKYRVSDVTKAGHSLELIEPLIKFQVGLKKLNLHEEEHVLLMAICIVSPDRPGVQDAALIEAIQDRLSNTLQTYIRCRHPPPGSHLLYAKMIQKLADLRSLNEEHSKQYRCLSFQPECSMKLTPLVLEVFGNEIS
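Fluorescence polarization assay of small-molecule disruption of VDR binding to coregulator peptide SRC2-3. Compounds and controls pin-transferred, then read after 2 h incubation at ambient room temperature.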
Active calls of the source: *; [ ] = remark or other dose. % is scaled to controls: 0 for no effect and ±100 for the full control effect; potency is read from the fitted curve at half-maximal effect. A portion of the library. The share of hits here may be higher or lower than overall.

`CC1Nc2ncnc(N3CCOCC3)c2N(Cc2ccccc2)C1=O` (stereo unspecified) gave VDR inhibitor -10%.
`O=C(NC1CCN(S(=O)(=O)c2ccccc2)CC1)c1ccc(F)cc1` gave VDR inhibitor 2%.
For O=C(NCc1ccc2c(c1)OCO2)c1ccc(NS(=O)(=O)c2ccc3c(c2)OCCO3)cc1 the results were VDR inhibitor 18%.
`Cc1cc(C)cc(NC(=O)CCS(=O)(=O)c2ccc3c(c2)oc(=O)n3C)c1` gave VDR inhibitor -11%.
Screening CCCCn1c(N)c(N(CCOC)C(=O)C2CCN(C(=O)c3ccc(Cl)cc3)CC2)c(=O)[nH]c1=O returned VDR inhibitor -1%.
`Cc1ccc(NC(=O)CSCC(=O)Nc2ccccc2C(=O)N2CCCCC2)cc1` gave VDR inhibitor -4%.
For CCc1noc(C)c1C(=O)NC1CCCc2c1cnn2-c1ccc(C(C)(C)C)cc1 (stereo unspecified) the results were VDR inhibitor -15%.
`C[C@H](CO)N1C[C@H](C)[C@@H](CN(C)C(=O)Nc2ccc(C(F)(F)F)cc2)Oc2c(NS(=O)(=O)c3ccccc3)cccc2C1=O` gave VDR inhibitor 8%.
`COc1ccc(CC(=O)Nc2c3c(nn2C(C)(C)C)CS(=O)C3)cc1` (stereo unspecified) gave VDR inhibitor 10%.
`C[C@H](N)C(=O)O` gave VDR inhibitor 15%.
`COc1ccc(C)cc1S(=O)(=O)N1CCc2ccccc2C1` gave VDR inhibitor 13%.
`CNS(=O)(=O)c1ccc2c3c(cccc13)C(=O)N2` gave VDR inhibitor -9%.
For Cc1ccc(-c2nc(NCCN(C)C)c3ccccc3n2)cc1 the results were VDR inhibitor 2%.
Screening CN1C(=O)N(C)C(c2ccccc2Cl)C2=C1CC(C)(C)CC2=O (stereo unspecified) returned VDR inhibitor -2%.
Screening COC(=O)c1ccccc1N/C=C/C(=O)c1ccc(Br)cc1 returned VDR inhibitor -2%.
COc1ccc(C)cc1S(=O)(=O)Nc1cccc(-c2ccc(N3CCCC3)nn2)c1 was read as VDR inhibitor 15%.
`CC(C)(C)CC(C)(C)c1cc(Cc2cc(C(C)(C)CC(C)(C)C)cc(-n3nc4ccccc4n3)c2O)c(O)c(-n2nc3ccccc3n2)c1` gave VDR inhibitor -2%.
`CCOC(=O)C[C@H]1c2cc(F)ccc2S(=O)(=O)N1c1cccc(OC)c1` gave VDR inhibitor 1%.
Screening CC(C)(Oc1ccc(Cl)cc1)C(=O)OCC(=O)Nc1ncc(Cl)cc1Cl returned VDR inhibitor 51%[activator].
`CCOc1nc(C)cc(C)c1S(=O)(=O)c1cccc(Cl)c1` gave VDR inhibitor 10%.
For CCC(C)C(NC(=O)C1CCC(C)CC1)C(=O)Nc1ccc(OC)cc1OC (stereo unspecified) the results were VDR inhibitor 0%.
For Cc1ccc(NC(=O)CCn2cnc3ccccc3c2=O)cc1 the results were VDR inhibitor -6%.
`COc1ccc(NC(=O)CN(C)S(=O)(=O)c2ccc3c(c2)CC(C)N3C(C)=O)c(OC)c1` (stereo unspecified) gave VDR inhibitor -4%.
`CC(C)(C)n1nnnc1C(c1cccnc1)N(Cc1ccccc1)Cc1ccco1` (stereo unspecified) gave VDR inhibitor -13%.
`Cc1cccc(C)c1OCC(=O)Nc1ccccc1C(F)(F)F` gave VDR inhibitor -8%.
O=C(Nc1ccn(Cc2c(F)c(F)c(F)c(F)c2F)n1)c1ccc(COc2ccccc2Cl)cc1 was read as VDR inhibitor 9%.
Screening Cc1ccc(S(=O)(=O)N2CCC(C(=O)NCc3cccnc3)CC2)cc1 returned VDR inhibitor 10%.
CCC(C)NC(=O)C1CCN(C(=O)c2ccccc2)CC1 (stereo unspecified) was read as VDR inhibitor 9%.
CC(C)NC(=O)NC(=O)COC(=O)c1ccc(NC(=O)CC#N)cc1 was read as VDR inhibitor 0%.
For O=C(O)CCC(=O)Nc1cccc2cccnc12 the results were VDR inhibitor 8%.
For CCOC(=O)c1cc(C)nc(Sc2ccc(C)cc2)c1C#N the results were VDR inhibitor -7%.
For Cc1cc(SCC(=O)N2CCCC2=O)nc2c(C)cccc12 the results were VDR inhibitor 7%.
O=C(CCSCc1ccccc1F)N1CCN(c2ccccn2)CC1 was read as VDR inhibitor -4%.
N#CCCN1CCN(C(=S)c2ccc(-c3ccc(Cl)c(Cl)c3)o2)CC1 was read as VDR inhibitor -11%.
`Cc1ccc(S(=O)(=O)Nc2cccc(-c3ccc4nnc(C)n4n3)c2)s1` gave VDR inhibitor -9%.
For CC[C@H](C)[C@H](NC(=O)[C@H](Cc1ccccc1)NC(=O)[C@H](CCC(=O)O)NC(=O)[C@H](CCCCN)NC(=O)[C@H](C)NC(=O)[C@H](C)NC(=O)[C@H](CCC(N)=O)NC(=O)CNC(=O)[C@H](CCC(=O)O)NC(=O)[C@H](CC(C)C)NC(=O)[C@H](Cc1ccc(O)cc1)NC(=O)[C@H](CO)NC(=O)[C@H](CO)NC(=O)[C@@H](NC(=O)[C@H](CC(=O)O)NC(=O)[C@H](CO)NC(=O)[C@@H](NC(=O)[C@H](Cc1ccccc1)NC(=O)[C@@H](NC(=O)CNC(=O)[C@H](CCC(=O)O)NC(=O)[C@H](C)NC(=O)[C@@H](N)Cc1cnc[nH]1)[C@@H](C)O)[C@@H](C)O)C(C)C)C(=O)N[C@@H](C)C(=O)N[C@@H](Cc1c[nH]c2ccccc12)C(=O)N[C@@H](CC(C)C)C(=O)N[C@H](C(=O)N[C@@H](CCCCN)C(N)=O)C(C)C the results were VDR inhibitor 11%.
`COc1ccccc1OC(=O)c1cc2ccccc2oc1=O` gave VDR inhibitor 4%.
Screening Cn1nnnc1Sc1ncnc2scc(-c3ccccc3Cl)c12 returned VDR inhibitor -6%.
Screening O=C(COC(=O)CCC(=O)c1cccs1)Nc1ccccc1[N+](=O)[O-] returned VDR inhibitor -16%.
CCc1cc(=O)oc2cc(OCC(=O)NCCCN3CCCC3=O)ccc12 was read as VDR inhibitor 2%.
`O=C(NC1CCCCC1)N1CCN(CCc2ccccc2)CC1` gave VDR inhibitor 3%.
`CC(=O)c1cccc(NCC(=O)Nc2cc(S(=O)(=O)N3CCCCC3)ccc2C)c1` gave VDR inhibitor 0%.
Screening CCOC(=O)/C(C#N)=C/N=c1ccc(C)cn1C returned VDR inhibitor -9%.
For CNC(=O)N1CCN(C(=O)NC)CC1 the results were VDR inhibitor -2%.
COc1ccccc1OCC(=O)Nc1c2c(nn1-c1ccc(F)cc1)CS(=O)(=O)C2 was read as VDR inhibitor 0%.
Oc1ccc2ccccc2c1N=Nc1ccccc1F was read as VDR inhibitor -9%.
For COc1ccc(C2C(C#N)=C(N)Oc3cc4c(cc32)OCO4)cc1 (stereo unspecified) the results were VDR inhibitor 30%.
`N#C/C=C/C(=C\Nc1ccc(Cl)cc1)S(=O)(=O)c1ccccc1` gave VDR inhibitor 10%.
Screening Cc1cc(NC(=O)Cn2nc(C(=O)O)c3ccccc3c2=O)ccc1Br returned VDR inhibitor -23%.
Screening O=C(CN1C(=O)C2C3C=CC(C3)C2C1=O)OCC(=O)c1ccc(Cl)cc1 (stereo unspecified) returned VDR inhibitor -5%.
`O=c1cc(N2CCN(c3ccccc3Cl)CC2)[nH]c(=O)n1Cc1ccc(F)cc1` gave VDR inhibitor -7%.
For Cn1c(/N=C/c2c[nH]c3ccccc23)nc2ccccc21 the results were VDR inhibitor -16%.
Cc1cc(Br)ccc1NC(=O)CN(C)C(=O)CSC(=S)N1CCCC1 was read as VDR inhibitor -17%.
`NC(=S)N/N=C/c1cc([N+](=O)[O-])ccc1Cl` gave VDR inhibitor inconclusive.
For O=C(CCc1nnc(C2(c3ccc(Cl)cc3)CCC2)o1)NCCCn1cccn1 the results were VDR inhibitor -24%.
`Cc1ccc(NC(=O)c2nsc(Cl)c2Cl)cc1` gave VDR inhibitor 2%.
`c1cncc(-c2cn(C[C@H]3CC[C@H](Cn4cc(-c5cccnc5)nn4)O3)nn2)c1` gave VDR inhibitor -14%.
Cc1noc(C)c1NC(=O)N(C)C[C@@H]1Oc2c(NC(=O)NC(C)C)cccc2C(=O)N([C@@H](C)CO)C[C@@H]1C was read as VDR inhibitor 7%.
`COc1ccc(-n2c(SCC(N)=O)nnc2-c2ccco2)cc1` gave VDR inhibitor 2%.
For CC(=O)c1cnc2c(C(=O)O)cnn2c1C the results were VDR inhibitor 12%.
Cc1nn(CC(=O)N2CCN(c3ccccc3)CC2)c(=O)c2cc3cc(F)ccc3n12 was read as VDR inhibitor 14%.
C=CCOc1cccc(C2/C(=C(\O)c3ccc4c(c3)OCCO4)C(=O)C(=O)N2Cc2cccnc2)c1 (stereo unspecified) was read as VDR inhibitor 5%.
Screening CCOC(=O)c1ccc(NC(=O)NCCc2cnc[nH]2)cc1 returned VDR inhibitor 19%.
Screening Cc1ccc(S(=O)(=O)N(C)C)cc1NC(=O)CSc1nnnn1-c1ccc(O)cc1 returned VDR inhibitor -4%.
`C[C@H]1COC(=O)[C@@H](CC(=O)OC(C)(C)C)C/C=C\C[C@@H](CC(=O)N(CCO)Cc2ccccc2)C(=O)N1` gave VDR inhibitor -7%.
O=C(NC1CCCCC1)C(c1ccco1)N(C(=O)c1csnn1)C1CCCC1 (stereo unspecified) was read as VDR inhibitor -10%.
Screening Cc1cccc(Nc2nc(-c3sc(C)nc3C)cs2)c1 returned VDR inhibitor -18%.
`O=S(=O)(Nc1ccc(Cl)cn1)c1cccc(S(=O)(=O)c2ccccc2)c1` gave VDR inhibitor -7%.
For CCOC(=O)C1CCCN(c2nc3c(S(=O)(=O)c4ccc(C)c(C)c4)nnn3c3ccc(Cl)cc23)C1 (stereo unspecified) the results were VDR inhibitor inconclusive.
Screening CCOc1ccccc1NC(=S)N(CCC(C)C)C1CCN(C(C)=O)CC1 returned VDR inhibitor 6%.
For CC(C)COC(=O)C(C#N)c1nc2ccccc2nc1N1CCN(Cc2ccccc2)CC1 (stereo unspecified) the results were VDR inhibitor 8%.
For CCN(CC)C(=O)Nc1ccc(C(=O)OC)cc1 the results were VDR inhibitor -6%.
For CN(C)CCC(=O)N1c2ccccc2Sc2ccc(Cl)cc21 the results were VDR inhibitor 12%.
Screening COc1cc(C=C2C(=O)OC(c3ccccc3)OC2=O)cc(Br)c1O (stereo unspecified) returned VDR inhibitor -8%.
For CCSC1=NC2(CCN(C(=O)NC3CCCCC3)CC2)N=C1c1ccc(Cl)cc1 the results were VDR inhibitor 21%.
Cc1cccc(C=Nc2ccc3c(c2)oc2ccccc23)c1O was read as VDR inhibitor -11%.
Screening CCCOc1ccc(-c2nn(-c3ccccc3)cc2C2NC(=O)NC(C)=C2C(=O)OC)cc1 (stereo unspecified) returned VDR inhibitor -14%.
`C=CCn1c(SCC(=O)N(CC)C2CCS(=O)(=O)C2)nc2cc(C(=O)O)ccc2c1=O` (stereo unspecified) gave VDR inhibitor 8%.
`COc1cccc(-c2c(C(=O)N/N=C/c3ccc(C)s3)nnn2-c2nonc2N)c1` gave VDR inhibitor -20%.
CCN(Cc1ccccc1)S(=O)(=O)c1ccc(F)c(C(=O)Nc2cc(C(F)(F)F)ccc2Cl)c1 was read as VDR inhibitor -10%.
For COc1cccc(NC(=O)CCCn2c(=S)[nH]c3ccccc3c2=O)c1 the results were VDR inhibitor 14%.
For O=[N+]([O-])c1ccccc1CNC1CCCc2ccccc21 (stereo unspecified) the results were VDR inhibitor -26%.
`Cc1ccc(Oc2ncccc2NC(=O)CCCC(=O)O)c2c1CCC2` gave VDR inhibitor 9%.
`O=C(CN1CCOCC1)NCCC12CC3CC(CC(C3)C1)C2` gave VDR inhibitor -3%.
COc1ccc(N2CCN(C(=O)CN(Cc3ccccc3)S(C)(=O)=O)CC2)cc1 was read as VDR inhibitor -17%.
Cc1cc(N2CCC(C)CC2)nc2ccc(NC(=O)Cc3c(F)cccc3Cl)cc12 was read as VDR inhibitor -4%.
Screening Cc1cc(NC(=O)CCC(=O)N(c2ccccc2)C(C(=O)NC2CCCC2)c2ccccc2)no1 (stereo unspecified) returned VDR inhibitor 14%.
Cc1ccc(S(=O)(=O)NC(C)C(=O)NCc2ccc(Cl)cc2)cc1 (stereo unspecified) was read as VDR inhibitor -9%.
For CCC1=C(OC(=O)N(CC)CC)N2C(=O)OC(=NCC(=O)OC)[C@]2(C)[C@H]2C1=CC[C@H]1C(=O)NC(=O)[C@H]12 the results were VDR inhibitor -14%.

Of the compounds above, these have fluorine.
`O=C(NC1CCN(S(=O)(=O)c2ccccc2)CC1)c1ccc(F)cc1` gave VDR inhibitor 2%.
`C[C@H](CO)N1C[C@H](C)[C@@H](CN(C)C(=O)Nc2ccc(C(F)(F)F)cc2)Oc2c(NS(=O)(=O)c3ccccc3)cccc2C1=O` gave VDR inhibitor 8%.
`CCOC(=O)C[C@H]1c2cc(F)ccc2S(=O)(=O)N1c1cccc(OC)c1` gave VDR inhibitor 1%.
`Cc1cccc(C)c1OCC(=O)Nc1ccccc1C(F)(F)F` gave VDR inhibitor -8%.
O=C(Nc1ccn(Cc2c(F)c(F)c(F)c(F)c2F)n1)c1ccc(COc2ccccc2Cl)cc1 was read as VDR inhibitor 9%.
O=C(CCSCc1ccccc1F)N1CCN(c2ccccn2)CC1 was read as VDR inhibitor -4%.
COc1ccccc1OCC(=O)Nc1c2c(nn1-c1ccc(F)cc1)CS(=O)(=O)C2 was read as VDR inhibitor 0%.
Oc1ccc2ccccc2c1N=Nc1ccccc1F was read as VDR inhibitor -9%.
`O=c1cc(N2CCN(c3ccccc3Cl)CC2)[nH]c(=O)n1Cc1ccc(F)cc1` gave VDR inhibitor -7%.
Cc1nn(CC(=O)N2CCN(c3ccccc3)CC2)c(=O)c2cc3cc(F)ccc3n12 was read as VDR inhibitor 14%.
CCN(Cc1ccccc1)S(=O)(=O)c1ccc(F)c(C(=O)Nc2cc(C(F)(F)F)ccc2Cl)c1 was read as VDR inhibitor -10%.
Cc1cc(N2CCC(C)CC2)nc2ccc(NC(=O)Cc3c(F)cccc3Cl)cc12 was read as VDR inhibitor -4%.
